# Giardia killer: kills Giardia lamblia. Giardia lamblia trophozoite viability. activity change, % at 7.66 µM, hits read low. 0.15% of 340,000 active. AID 540267; in the data active means activity change below about -80%; inconclusive means between about -30% and that limit;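 further: parasites exposed to compound for two days anaerobically before the ATP read; on the % scale 0 is the no-effect control and ±100 the full control effect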
#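 Luminescence from cellular ATP indicates surviving trophozoites (100 cells/well) following 48 hrs anaerobic compound treatment at 37 deg C; signal develops 15-30 min at room temperature.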
# RORg inh: inhibitors of mouse ROR gamma transcriptional activity. Potency, µM (top dose mostly 53.6 µM), inactives show at the highest dose activity change, negative = inhibition, most hits filed as inhibitors. Drosophila S2 Gal4-RORgamma UAS-luciferase reporter, 20 h. AID 2551. P51450. 5.4% of 310,000 active; further: potency means the concentration at half of the fitted maximal effect; on the % scale 0 is the no-effect control and ±100 the full control effect; nearly all actives have a fitted effect of over 60% in size
# Target sequence (P51450 whole entry, looked up, the tested form may be a part): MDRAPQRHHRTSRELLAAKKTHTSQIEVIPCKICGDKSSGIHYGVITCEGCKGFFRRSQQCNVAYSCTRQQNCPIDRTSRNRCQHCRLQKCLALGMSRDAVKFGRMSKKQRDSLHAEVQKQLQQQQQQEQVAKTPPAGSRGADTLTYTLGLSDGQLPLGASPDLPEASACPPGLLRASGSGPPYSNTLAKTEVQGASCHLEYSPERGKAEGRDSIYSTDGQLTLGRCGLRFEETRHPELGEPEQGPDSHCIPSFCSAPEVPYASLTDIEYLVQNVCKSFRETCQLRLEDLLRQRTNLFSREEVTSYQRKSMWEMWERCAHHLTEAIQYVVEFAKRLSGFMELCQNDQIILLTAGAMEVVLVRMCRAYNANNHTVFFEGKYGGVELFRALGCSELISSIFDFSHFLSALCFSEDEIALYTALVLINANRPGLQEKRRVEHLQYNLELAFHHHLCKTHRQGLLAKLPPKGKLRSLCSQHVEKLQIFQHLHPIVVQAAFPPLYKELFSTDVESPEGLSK
#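 Drosophila S2 cells stably expressing Gal4-DBD/mouse RORγ fusion under metallothionein promoter plus UAS-luciferase; compound 1 h, then 700 uM CuSO4 induction for 20 h at ambient temperature; inhibition read as reduced luminescence.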
# ELG1 genotoxic: induces genotoxicity in HEK293T cells with luciferase-tagged ELG1; HEK293T ELG1-luciferase reporter, luminescence, 16 h; Potency, µM (series often up to 46 µM), inactives show at the highest dose activity change, positive = activation, usual class: activators; 1.3% of 330,000 active; AID 504466; further: potency means the concentration at half of the fitted maximal effect; % of control where 0% means no effect; nearly all actives have a fitted effect of over 60% in size
#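 Reporter readout depends on ELG1 protein level, which increases with genetic stress. After 16 hr compound exposure at 37 °C, luciferase activity was quantified using ONE-Glo.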
# BRCA1 expr up: activators of BRCA1 expression; Potency, µM (titrated, usually from 46.1 µM), for the others: at the top dose activation, hits mostly activators; MCF7-BRCA1-FFLuc reporter, luminescence, 48 h; response scale: scaled: vehicle 0%, 10 µM genistein 100%; 1.1% of 380,000 active; further: potency means the concentration at half of the fitted maximal effect; nearly all actives have a fitted effect of over 80% in size; some results filed as inactive show a strong effect at the top dose
#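 MCF7-BRCA1-FFLuc cells, 2000/well in phenol-red-free MEM, attached 2 h then treated 48 h at 37 C. Luciferase luminescence read 15 min after reagent; normalized to genistein maximum activation (10microM) and DMSO, concentration-response fitted.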
# VP16 counter: Gal4-VP16 reporter inhibition counter-screen; Drosophila S2 Gal4-VP16 UAS-luciferase, luminescence, 20 h; Potency, µM (titrated, usually from 53.6 µM), without a hit: top-dose activity, negative = inhibition, most hits filed as inhibitors; 3.5% of 310,000 active;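 further: Gal4-VP16 expression switched on by copper sulfate through the metallothionein promoter; potency means the concentration at half of the fitted maximal effect; on the % scale 0 is the no-effect control and ±100 the full control effect; nearly all actives have a fitted effect of over 50% in size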
# Menin MLL FP TR: inhibitors of human menin-MLL interaction, mutant MLL peptide. Potency, µM (top dose mostly 61.6 µM), for the others: at the highest dose FP activity change, negative = inhibition, hits mostly inhibitors. AID 1768. O00255. 0.23% of 270,000 active. Menin + Texas Red MLL mutant peptide, fluorescence polarization; active means well fitted inhibition curve with a large enough effect in the polarisation, with a control signal flat, not every such curve was filed as active; inconclusive means small, poorly fitted or top-dose-only effect, or effect the other way, or a change in a side signal; inactive means no such curve, though single readings can be large or run the other way; the % refers to the polarisation; further: potency means the concentration at half of the fitted maximal effect; % of control where 0% means no effect; many of its hits are not listed in these tables
# NPC1 prom act: activators of NPC1 promoter; Huh7 NPC1 promoter luciferase reporter, 24 h; Potency, µM (top dose mostly 9.22 µM), for the others: at the highest dose activation, usual class: activators; 2.4% of 320,000 active; AID 485313;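 further: potency means the concentration at half of the fitted maximal effect; % of control where 0% means no effect; nearly all actives have a fitted effect of over 60% in size; reporter is driven by a mutant NPC1 promoter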
#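 Compounds in DMSO were transferred onto Huh7 NPC1-luciferase reporter cells pre-incubated 2 h; after 24 h at 37 °C, Amplite reagent was dispensed and luminescence recorded 10 min later.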
# Starred values were filed as active, the others as inactive; u = inconclusive; x = not tested or not shown; & = joins results of further samples; [ ] = remark or other dose. Unless noted, the call rests on the fitted dose curve; in most records, active means well fitted curve in the direction sought with a large enough effect; inconclusive means small, poorly fitted or top-dose-only effect, or another doubt; inactive means no such curve, though single readings can be large; an effect the other way counts as inactive or inconclusive. A portion of the library; the hit share may differ from the screen's.
SMILES,Giardia killer,RORg inh,ELG1 genotoxic,BRCA1 expr up,VP16 counter,Menin MLL FP TR,NPC1 prom act
CCc1ccc(NC(=O)Nc2ccon2)cc1,5.9,14.5%,u,3.16µM*,-12.2%,17.5%,2.24µM*
C1CCC2=NCCCN2CC1,-2.1,0.3%,-1.4%,1.0%,-0.5%,16.9%,2.2%
CCn1c(C)c(P(c2ccccc2)c2ccccc2)[n+]2ccccc12,5.6,4.5%,-6.8%,-77.1%,-2.7%,-7.1%,-16.7%
CN1CCC(OC(c2ccccc2)c2ccccc2)CC1,0.4,0.5%,-3.3%,-0.5%,2.8%,4.9%,-1.2%
CC(=O)Nc1ccc(S(=O)(=O)NC2(C(F)(F)F)C(=O)Nc3c2c(=O)[nH]c(=O)n3Cc2ccco2)cc1 (configuration not stated),-18.2,-13.7%,7.2%,13.2%,1.3%,1.7%,-1.4%
c1ccc(-c2ccc(-c3nc(-c4ccccn4)no3)cc2)cc1,u,2.51µM*,u,-103.4%[inhibitor],1.41µM*,7.5%,-20.8%
NC(=O)CC1Nc2cccc3cccc(c23)NC1=O (configuration not stated),-3.6,3.6%,0.3%,-33.8%,-10.9%,1.4%,3.8%
C=C(Cl)COc1ccc2c(CC)cc(=O)oc2c1,5.6,13.6%,2.5%,27.4%,-1.1%,0.3%,-2.8%
CCCCC[C@H](O)C=C[C@H]1[C@H](O)CC(=O)[C@H]1CCCCCCC(=O)O,x,6.5%,x,x,u,-0.2%[24.8 µM],x
CC(C)NCC(O)c1ccc(O)c(O)c1 (configuration not stated),-20.8,-11.0%,9.2%,-16.0%,-0.8%&-14.1%&-3.7%&10.9%,-1.5%&-0.9%&1.4%&-0.9%&1.6%,-0.2%[46.1 µM]
O=C(Nc1nc2c(F)cc(F)cc2s1)c1ccco1,u,-38.4%,u,u,u,6.4%,0.708µM*
CN(C)CC/C=C1/c2ccccc2COc2ccccc21,x,-12.8%&12.6%,x,x,u,1.5%&0.5%,0.6%
COc1ccc(/C=C/C(=O)c2ccccc2O)cc1,-24.8,u,16.4µM*,83.9%,-11.4%[10 µM],4.0%[11.7 µM],18.8%
CCCCCC(=O)CC[C@@H]1[C@@H](C/C=C\CCCC(=O)O)[C@@H](O)C[C@H]1O,x,1.6%,x,x,-15.2%,-17.4%,x
Cc1cn(C2C=CC(CO)O2)c(=O)[nH]c1=O (configuration not stated),-6.1,-3.1%,2.8%,10.2%,-4.5%,-6.7%,-0.2%
O=C(OCC(=O)N1CCc2ccccc21)c1ccccc1F,-1.5,-5.7%,11.9%,11.9%,-5.8%,1.2%,2.5%
Cc1cccc(Nc2ccccc2C(=O)O)c1C,1.0,u,1.4%,5.5%,-7.9%,u,1.8%
CCn1ccc(C(=O)Oc2ccc(C(C)C)cc2)n1,-0.7,-12.2%,u,27.1%,-15.3%,16.8%,0.0%
CC(N=C(NC#N)Nc1ccncc1)C(C)(C)C (configuration not stated),18.6&-22.8,10.8%[10 µM],-2.3%,4.9%&12.5%,-7.9%&-12.7%&-15.7%,-2.8%&-4.3%&-4.6%&0.6%,3.1%[46.1 µM]
COc1ccc(OC)c(-n2c(-c3ccc(O)cc3O)n[nH]c2=S)c1,2.6,u,-7.5%,-3.9%,-21.0%,x,12.4%
c1ccc2c(c1)CCCC2C1=NCCN1 (configuration not stated),8.9,3.7%&35.1%,-0.1%,0.0%,-8.0%&7.9%,7.3%&14.8%&-0.5%,-1.4%[46.1 µM]
Cc1c(C(=O)O)[nH]c2c1C(=O)CC(c1ccc(Cl)cc1)C2 (configuration not stated),10.6,18.4%,1.8%,-7.1%,11.3%,-17.3%,-1.9%
CCCCOC(=O)C1=C(C)Nc2nnnn2C1c1ccc(OC)c(OC)c1OC (configuration not stated),24.6,-9.1%,-1.9%,-0.3%[1.84 µM],1.5%,-15.2%,-2.7%
COc1cccc(Nc2nc(C)cc(C)c2C(N)=O)c1,-5.3,-2.3%,-1.6%,-24.6%,-1.9%,16.9%,2.9%

# Quoted at random: 2 entries already listed.
SMILES,Giardia killer,RORg inh,ELG1 genotoxic,BRCA1 expr up,VP16 counter,Menin MLL FP TR,NPC1 prom act
Cc1cn(C2C=CC(CO)O2)c(=O)[nH]c1=O (configuration not stated),-6.1,-3.1%,2.8%,10.2%,-4.5%,-6.7%,-0.2%
CCCCOC(=O)C1=C(C)Nc2nnnn2C1c1ccc(OC)c(OC)c1OC (configuration not stated),24.6,-9.1%,-1.9%,-0.3%[1.84 µM],1.5%,-15.2%,-2.7%

# (more compounds)
SMILES,Giardia killer,RORg inh,ELG1 genotoxic,BRCA1 expr up,VP16 counter,Menin MLL FP TR,NPC1 prom act
Cc1ccc(NC(=O)COc2ncnc3sccc23)cc1S(=O)(=O)N(C)C,-9.2,-9.9%,0.6%,-8.5%,-17.5%,1.4%,-5.1%
O=C(N/N=C/c1ccc(OC(=O)c2ccccc2Br)cc1)c1ccccn1,-4.2,-6.4%,2.5%,u,-4.8%,x,0.8%
NC(=O)c1ncn([C@@H]2O[C@H](CO)[C@@H](O)[C@H]2O)n1,-4.5,-25.9%&-14.3%,-0.5%,5.2%,-8.1%&5.0%,0.3%&-0.4%,-18.5%[46.1 µM]
Oc1c(Cl)cc(Cl)cc1Sc1cc(Cl)cc(Cl)c1O,x,u,-3.8%,x,12.6µM*,u,-2.7%
COc1cc(-c2ccc(=O)[nH]n2)ccc1OC(F)F,1.3,1.0%,x,-10.1%,9.0%,-2.9%,-0.8%
NC(=O)c1ncn([C@H]2O[C@@H](CO)[C@@H](O)[C@@H]2O)n1,x,0.2%[16.9 µM],x,x,1.0%[17 µM],6.9%[24.8 µM],x
C=C(CC)C(=O)c1ccc(OCC(=O)O)c(Cl)c1Cl,-25.0,u,u,-72.3%&-65.8%,u,-3.6%,-10.0%

# A draw from above in order of length of the SMILES, rising.
SMILES,Giardia killer,RORg inh,ELG1 genotoxic,BRCA1 expr up,VP16 counter,Menin MLL FP TR,NPC1 prom act
c1ccc2c(c1)CCCC2C1=NCCN1 (configuration not stated),8.9,3.7%&35.1%,-0.1%,0.0%,-8.0%&7.9%,7.3%&14.8%&-0.5%,-1.4%[46.1 µM]
Cc1cccc(Nc2ccccc2C(=O)O)c1C,1.0,u,1.4%,5.5%,-7.9%,u,1.8%
CC(N=C(NC#N)Nc1ccncc1)C(C)(C)C (configuration not stated),18.6&-22.8,10.8%[10 µM],-2.3%,4.9%&12.5%,-7.9%&-12.7%&-15.7%,-2.8%&-4.3%&-4.6%&0.6%,3.1%[46.1 µM]
CCn1ccc(C(=O)Oc2ccc(C(C)C)cc2)n1,-0.7,-12.2%,u,27.1%,-15.3%,16.8%,0.0%
COc1cccc(Nc2nc(C)cc(C)c2C(N)=O)c1,-5.3,-2.3%,-1.6%,-24.6%,-1.9%,16.9%,2.9%
O=C(OCC(=O)N1CCc2ccccc21)c1ccccc1F,-1.5,-5.7%,11.9%,11.9%,-5.8%,1.2%,2.5%
Oc1c(Cl)cc(Cl)cc1Sc1cc(Cl)cc(Cl)c1O,x,u,-3.8%,x,12.6µM*,u,-2.7%
C=C(CC)C(=O)c1ccc(OCC(=O)O)c(Cl)c1Cl,-25.0,u,u,-72.3%&-65.8%,u,-3.6%,-10.0%
Cc1c(C(=O)O)[nH]c2c1C(=O)CC(c1ccc(Cl)cc1)C2 (configuration not stated),10.6,18.4%,1.8%,-7.1%,11.3%,-17.3%,-1.9%
COc1ccc(OC)c(-n2c(-c3ccc(O)cc3O)n[nH]c2=S)c1,2.6,u,-7.5%,-3.9%,-21.0%,x,12.4%
O=C(N/N=C/c1ccc(OC(=O)c2ccccc2Br)cc1)c1ccccn1,-4.2,-6.4%,2.5%,u,-4.8%,x,0.8%
Cc1ccc(NC(=O)COc2ncnc3sccc23)cc1S(=O)(=O)N(C)C,-9.2,-9.9%,0.6%,-8.5%,-17.5%,1.4%,-5.1%
NC(=O)c1ncn([C@@H]2O[C@H](CO)[C@@H](O)[C@H]2O)n1,-4.5,-25.9%&-14.3%,-0.5%,5.2%,-8.1%&5.0%,0.3%&-0.4%,-18.5%[46.1 µM]
NC(=O)c1ncn([C@H]2O[C@@H](CO)[C@@H](O)[C@@H]2O)n1,x,0.2%[16.9 µM],x,x,1.0%[17 µM],6.9%[24.8 µM],x

# Assay outcomes as filed in PubChem.
